UCH37 DUB inh – human UCH37 deubiquitinating enzyme inhibition | purified proteasome/UCH37, Ub-AMC cleavage fluorescence | 330,000 tested, 0.33% active | inhibition, % (test concentration not listed) | AID 588478;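 active = mean of two replicates above 20%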;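 also: 0% = compound-free wells with enzyme and 100% = wells lacking proteasome; stock transfer was 100 nL into about 20 µL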
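System: Proteasome-associated human UCH37 deubiquitinase; Input: 0.15 nM proteasome in added enzyme buffer; Also added: Ub-AMC substrate from 1 µM stock; Incubation: 30 min compound-proteasome preincubation then 25 min substrate reaction, room temperature; Detection: fluorescence, ex 355 nm, em 460 nm; Read-out: % inhibition of Ub-AMC cleavage fluorescence; Benchmarks: no-proteasome and no-compound wells.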
Calb FLC – affects C. albicans growth with fluconazole | C. albicans CaCi-2 (fluconazole-resistant clinical isolate) + fluconazole, Alamar Blue growth, 48 h | growth inhibition, % (concentration not given with the values) | 300,000 tested, 0.57% active;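 active = most replicates above 75%; inconclusive = exactly half above 75%; inactive = most below 75%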;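 also: all wells also contain fluconazole at 8 µg/ml as a sub-toxic cotreatment; 0% = median of DMSO wells and 100% = median of geldanamycin control wells; wells of about 8 µL received 7.5 nL stock; the first replicate is given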
Bfl-1 A1 inh – inhibitors of the anti-apoptotic protein A1, read as caspase activation | 330,000 tested, 0.066% active | caspase activation, % (test concentration not listed) | MEF A1-2A-BIM cells, Caspase-Glo 3/7 luminescence, 3 h; percent of clofoctol response, vehicle zero | AID 2462;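 active = over half of replicate activation scores above 10%, or exactly half above 10 with the replicate mean above 10; inconclusive = replicate mean below 10 yet half the replicates above 10; inactive = over half of replicates below 10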;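 also: wells of about 30 µL received 50 nL stock; many hits fall short of the cut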
LANA-H2B inh – blocks KSHV LANA binding to histone H2A/H2B; inhibition, % (test concentration not listed); 320,000 tested, 0.6% active; Q9QR71; cell-free LANA-H2A/H2B peptide, fluorescence polarization; in the data active = inhibition mostly above about 10%, no sharp cut-off; inactive = mostly below about 6.7%;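 also: stock transfer was 7.5 nL into about 10 µL; 0% = median of vehicle wells and 100% = median of positive control wells; one replicate is shown; the record names a cut of 25% in any replicate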
Target sequence (Q9QR71 whole entry, looked up): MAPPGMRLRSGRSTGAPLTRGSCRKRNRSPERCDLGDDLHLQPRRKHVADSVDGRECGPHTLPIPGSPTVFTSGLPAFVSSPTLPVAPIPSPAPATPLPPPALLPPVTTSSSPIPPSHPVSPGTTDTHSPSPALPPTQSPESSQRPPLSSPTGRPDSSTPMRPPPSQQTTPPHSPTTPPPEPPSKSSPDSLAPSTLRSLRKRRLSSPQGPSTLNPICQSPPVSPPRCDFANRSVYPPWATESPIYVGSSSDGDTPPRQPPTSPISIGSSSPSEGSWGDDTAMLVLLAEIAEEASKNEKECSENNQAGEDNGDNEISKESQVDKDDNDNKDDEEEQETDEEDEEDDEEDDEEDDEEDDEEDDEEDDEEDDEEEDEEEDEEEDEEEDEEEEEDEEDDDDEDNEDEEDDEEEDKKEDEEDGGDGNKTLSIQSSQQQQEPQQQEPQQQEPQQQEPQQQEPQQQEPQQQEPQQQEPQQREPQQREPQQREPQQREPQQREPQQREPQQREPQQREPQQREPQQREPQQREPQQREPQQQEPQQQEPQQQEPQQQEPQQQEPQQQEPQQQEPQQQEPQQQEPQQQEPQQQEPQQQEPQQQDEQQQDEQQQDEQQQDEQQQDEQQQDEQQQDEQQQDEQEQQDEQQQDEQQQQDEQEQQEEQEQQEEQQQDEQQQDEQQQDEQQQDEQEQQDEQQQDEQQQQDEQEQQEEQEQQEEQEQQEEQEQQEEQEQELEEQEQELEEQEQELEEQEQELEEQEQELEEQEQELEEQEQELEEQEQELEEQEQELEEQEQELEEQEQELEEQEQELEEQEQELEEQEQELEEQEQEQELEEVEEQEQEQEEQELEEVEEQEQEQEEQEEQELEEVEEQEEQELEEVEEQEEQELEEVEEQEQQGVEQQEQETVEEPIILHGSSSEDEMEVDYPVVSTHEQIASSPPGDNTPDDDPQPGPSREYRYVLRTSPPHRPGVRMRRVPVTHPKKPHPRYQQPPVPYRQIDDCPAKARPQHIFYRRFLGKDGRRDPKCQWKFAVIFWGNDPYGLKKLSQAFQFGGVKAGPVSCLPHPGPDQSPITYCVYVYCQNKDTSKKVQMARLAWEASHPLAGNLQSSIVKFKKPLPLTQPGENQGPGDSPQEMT
Beta cell apopt – beta cell apoptosis inhibition; 300,000 tested, 0.8% active; AID 435005; protection from apoptosis, % (no concentration beside the values); INS-1E cytokine-induced death, ATP luminescence, 48 h; percent of positive-control rescue, neutral wells zero;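 active = all replicates at 75% or more, or half of them and the mean; inconclusive = half reach 75% but not the mean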;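 also: 0% = cytokine-treated negative control wells and 100% = positive control rescue; higher means more ATP so stronger rescue from cytokine killing; wells of about 40 µL received 100 nL stock; the first replicate is given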
RanGTP-Imp inh – inhibitors of RanGTP-importin-beta interaction, primary screen, biochemical, FRET, CFP-Ran, YFP-importin-beta, homogeneous. 300,000 tested, 1.1% active. AID 2216. cell-free CFP-Ran/YFP-importin-beta FRET ratio. inhibition, % (concentration not given with the values);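 active = most replicates above 15%; inconclusive = exactly half above 15%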;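 also: 0% = DMSO wells and 100% = Ran loaded with GDP instead of GTP; wells of about 40 µL received 100 nL stock; the first replicate is given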
T cruzi inh – T. cruzi replication inhibition; T. cruzi beta-gal in NIH3T3, luminescence, 90 h; inhibition, % (concentration not given with the values); 300,000 tested, 1.4% active; AID 1885;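 active = mean inhibition across valid replicates above about 55%, limit read from the data; inconclusive = mean below that limit but half or more replicates reach it; inactive = mean below it, under half of replicates reach it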;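 also: signal also drops with host cell toxicity which is not excluded here; 0% = plate median of DMSO wells and 100% = zero luminescence signal; higher percent means less beta-gal luminescence so fewer parasites; stock transfer was 50 nL into about 50 µL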
Beta2AR agonist – human beta-2 adrenergic receptor agonism by FAP; P07550; Am2.2-beta2AR cells, FAP receptor internalization, flow cytometry; reference of the scale not given here; response, % (no concentration beside the values); 340,000 tested, 0.43% active;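 active = response above a set limit, near 3 SD of response in nonfluorescent compounds, cut at about 42% in these data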;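 also: stock transfer was 100 nL into about 11 µL; a reference agonist was the positive control; negative values mostly stem from fluorescent compounds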
An asterisk follows results filed as active; i = inactive; ? = inconclusive; . = not tested or not shown.

SMILES	UCH37 DUB inh	Calb FLC	Bfl-1 A1 inh	LANA-H2B inh	Beta cell apopt	RanGTP-Imp inh	T cruzi inh	Beta2AR agonist
Cc1cc(=O)oc2cc(OC(=O)c3nn(C(C)C)c(=O)c4ccccc34)ccc12	i	3.2	-0.3	-2.7	-6.8	2.2	-10.0	5.4
NC(=O)c1ccc(NC(=O)CN2CCN(Cc3ccccc3)CC2)cc1	4.5	-4.1	-1.3	-2.0	-8.1	1.2	0.6	-4.9
O=C(COc1cccc(C(F)(F)F)c1)Nc1nnc(C2CC2)s1	3.9	.	1.0	-2.6	-3.2	.	.	-0.5
Cc1ccc(OC(C)C(=O)Nc2ccc(S(=O)(=O)Nc3cc(C)on3)cc2)cc1 (stereo not given)	0.3	-19.0	.	.	.	-0.5	-3.5	9.7
c1ccc(-c2ccnc3ncnn23)nc1	-1.4	-14.1	0.3	-0.7	-2.7	-0.6	-12.3	-11.5
CCOC(=O)CNC(=O)CNC(=O)c1ccc(OCC(C)C)cc1	4.1	-3.6	1.0	-4.2	-2.6	-2.0	-4.2	-6.3
CCCC1=C(C(=O)OCC)C(c2ccc(NC(C)=O)cc2)NC(=O)N1 (stereo not given)	-9.3	10.1	0.3	2.3	-4.2	-2.7	-3.9	7.3
O=C(CCN1C(=O)/C(=C/c2ccccc2Cl)SC1=S)N1CCOCC1	4.3	38.3	-0.4	-3.5	.	3.0	14.9	7.1
COc1ccc(S(=O)(=O)NCC2CCCN(C(=O)CN3CCCCC3)C2)cc1 (stereo not given)	2.9	-15.1	-1.2	-1.4	-3.4	-6.7	-0.9	4.0
CCCOc1ccc(C(=O)Nc2ccc(S(=O)(=O)N3CCN(C)CC3)cc2)cc1	3.1	-3.2	-0.2	-1.2	.	4.4	3.6	14.8
O=C(Nc1ccc2oc(-c3ccncc3)nc2c1)c1ccccc1F	-87.8	4.4	-0.7	-2.1	6.5	0.1	-10.7	-1.8
COc1cc2c(cc1OC)CN(C(=O)/C=C/c1ccccc1[N+](=O)[O-])CC2	2.5	13.3	2.6	-9.2	8.3	-1.9	1.4	-1.7
COc1ccc(C(=O)CN2CCN(c3ccc(F)cc3)CC2)cc1OC	0.1	6.8	-0.3	1.0	-5.4	-1.3	14.6	1.3
c1ccc2oc(-c3csc(NCC4CCCO4)n3)cc2c1 (stereo not given)	-0.2	-1.6	-4.8	12.7	-4.3	-0.5	7.0	3.3
COC(=O)c1cn(-c2ccccc2)c(=O)c2ccccc12	3.3	1.2	1.1	1.0	-0.2	-2.1	-22.7	-9.9
COc1ccc(S(=O)(=O)N2CCOCC2)cc1OC	2.6	-1.9	1.6	0.1	-6.8	4.5	-12.7	13.3
CN(C)S(=O)(=O)c1ccc(Nc2ccc(-c3ccc4c(c3)OCCO4)nn2)cc1	2.8	-9.9	-0.9	0.0	.	3.9	21.8	0.2
CC(=O)c1ccc(N2CCN(CC(=O)Nc3ccccc3C(=O)NC3CC3)CC2)c(F)c1	0.9	.	0.1	3.3	2.7	.	.	5.2
O=C(Nc1ccncc1)c1ccc2c(c1)OCCO2	2.4	1.5	-0.4	0.5	7.8	-2.1	-16.1	6.0
CC(C)(CC(=O)O)CC(=O)N1CCN(c2cc(C(F)(F)F)nc3ccccc23)CC1	1.9	-4.7	-1.1	-1.5	-3.4	1.8	4.0	8.5
Cn1c2ccc(F)cc2c2nnc(NN)nc21	8.1	-2.8	.	.	.	-1.4	18.8	2.4
CC1CN(C2CCCCC2)c2nc3c(c(=O)[nH]c(=O)n3C)n2C1 (stereo not given)	2.5	1.2	-0.1	-0.7	-5.5	8.7	-16.2	-3.9
O=C(Nc1ccon1)c1csc2c1CCCC2	4.5	13.6	0.3	4.4	-1.1	?	9.6	-18.2
Cc1ccc(C)c(NC(=O)CSc2nnc(-c3n[nH]c4ccccc34)o2)c1	0.0	-9.1	0.2	-0.1	-7.8	4.1	-12.1	-3.9
CSc1nc(N)nc(SCC(=O)Nc2cccc(F)c2)c1C#N	1.4	-4.9	-0.5	0.8	-4.6	0.3	5.1	-14.8
Additional structures
SMILES	UCH37 DUB inh	Calb FLC	Bfl-1 A1 inh	LANA-H2B inh	Beta cell apopt	RanGTP-Imp inh	T cruzi inh	Beta2AR agonist
CN(C)S(=O)(=O)c1ccc2c(c1)c(=O)c(C(=O)NCCCN1CCCCCC1)cn2C	3.9	2.0	0.8	1.4	1.3	7.0	-3.2	-0.4
OCCC1CN(Cc2ccc(-c3ccco3)cc2)CCN1Cc1ccsc1 (stereo not given)	2.2	-4.4	0.2	-0.4	-3.0	1.1	5.2	-1.6
Cc1ccc(/C=N/NC(=O)CSc2nnc(-c3ccc(Cl)cc3)n2-c2ccc(Cl)cc2)o1	.	-4.5	0.6	-1.5	-0.8	-2.6	3.1	11.6
Cc1ccc(OCCNC(=O)c2ccccc2F)cc1	4.9	-4.9	0.4	-5.4	5.5	0.5	-3.5	-8.4
COc1ccc(C2SCC(=O)N2c2ccc(C)cc2)cc1 (stereo not given)	3.3	1.5	1.2	-2.7	-10.2	3.9	-10.8	1.8
CN(C)C(CNC(=O)CCOc1ccccc1)c1ccco1 (stereo not given)	-2.5	-1.0	0.7	0.6	-5.4	0.3	-0.8	6.0
CCOc1ccc(N(C(C)=O)C2C=CS(=O)(=O)C2)cc1 (stereo not given)	3.6	-7.1	0.2	1.6	.	4.2	-5.4	7.8
Cc1cc(C#N)c(SCC(N)=O)nc1-c1ccc(F)cc1	-6.2	1.3	-0.5	-0.2	-3.3	1.2	3.4	-0.9
Cc1occc1-c1nnc(SCC(=O)Nc2nc(C(C)(C)C)cs2)o1	0.3	6.2	0.6	2.4	49.1	-1.9	-29.5	-1.4
COC(=O)c1sc(N)c(C(=O)OC)c1COC(=O)c1c(C)noc1C	-0.6	-12.4	0.8	4.1	19.0	5.5	8.3	14.8
CCc1nnc(NC(=O)c2cccc(S(=O)(=O)N3CC(c4ccccc4)CC3=O)c2)s1 (stereo not given)	0.4	45.1	1.1	1.1	-1.1	6.1	1.2	0.3
CC(C)COC(=O)n1c(SCC(N)=O)nc2ccccc21	7.0	2.1	-0.2	-6.7	-4.0	0.2	-10.4	-5.9
Cc1ccccc1CSCCNC(=O)c1ccccc1	0.7	-9.2	1.1	-2.2	1.3	-2.1	5.4	2.8
COc1ccc(-c2c(C)nn3c(N4CCC(C(=O)N5CCCCC5)CC4)cc(C)nc23)cc1OC	-22.5	3.4	-0.3	0.9	.	0.8	12.9	8.2
Cc1ccc([C@H]2C(C(=O)O)=CC[C@@H](c3ccc(Cl)cc3)N2S(=O)(=O)c2ccc(C)cc2)cc1	5.4	.	-0.1	3.2	-1.2	.	.	10.9
COc1cccc(NC(=O)CCCn2c(=O)[nH]c3ccccc3c2=O)c1	5.6	30.5	0.7	-1.5	3.3	0.9	-5.6	-11.8
CCOc1ccccc1N(CC(=O)Nc1cc(OC)ccc1OC)S(=O)(=O)c1ccccc1	5.3	-1.1	-0.1	-0.1	-3.3	-6.2	19.3	15.6
COCCN(C(=O)C(=O)NC1CCCC1)C(C(=O)NC1CCCC1)c1ccccc1F (stereo not given)	1.2	-1.8	-0.1	6.4	-4.3	-1.7	-5.5	-2.5
Cc1nn(CCC#N)c(N)c1C1(O)C(=O)Nc2c(Cl)cc(Cl)cc21 (stereo not given)	2.5	-0.2	0.0	4.0	-19.0	-1.2	-15.3	1.0
COc1ccc2cc(C(=O)N(C)Cc3ccccc3)[nH]c2c1	0.9	-7.5	-1.5	4.3	2.3	5.8	-17.8	5.4
O=C1C2C3C=CC(C4CC34)C2C(=O)N1c1cc(Cl)ccn1 (stereo not given)	4.7	-2.3	-0.3	-3.1	2.7	0.3	0.1	3.6
Cc1nnc(SCC(=O)N(CCC#N)c2ccc3c(c2)OCCO3)s1	1.0	.	0.2	0.6	-6.8	.	.	-2.3
CCOC(=O)c1cc(NC(=O)c2ccco2)ccc1N1CCOCC1	2.5	-9.4	1.1	-5.1	-3.6	.	.	-24.5
CCc1nnc(NC(=O)c2ccc(COc3ccccc3Cl)o2)s1	4.6	-6.1	0.0	5.0	-5.6	-5.3	-0.6	-0.3
N#Cc1c(N2CCSCC2)nsc1-c1ccccc1Cl	0.3	4.9	0.4	2.6	-4.5	1.1	-1.6	-4.8
The results go on:
SMILES	UCH37 DUB inh	Calb FLC	Bfl-1 A1 inh	LANA-H2B inh	Beta cell apopt	RanGTP-Imp inh	T cruzi inh	Beta2AR agonist
O=C1CCCN1CCC1CCN(C2CC(=O)N(c3ccc(F)cc3)C2=O)CC1 (stereo not given)	0.9	-0.8	-0.3	1.4	.	-2.1	-11.8	-7.5
CN1CCN(S(=O)(=O)c2cccc(C(=O)NCCC3=CCCCC3)c2)CC1	-0.1	-1.3	0.4	-6.8	2.8	.	2.0	2.7
COCc1cc(C)nc(N2CCN(Cc3ccccc3)CC2)c1C#N	4.6	-4.6	0.5	-7.5	-1.0	9.5	5.6	5.0
Cc1nc(N2CCOCC2)sc1C=O	13.7	5.2	-0.4	1.6	-2.1	-1.5	-10.0	-2.2
O=C(Nc1ccc2c(c1)C(=O)OC2)c1ccccc1Cl	3.7	7.3	-0.1	8.2	0.7	?	-25.5	2.0
Cc1ccc(S(=O)(=O)CCC(=O)OCC(=O)N2CCc3ccccc32)cc1	1.6	4.3	0.2	1.1	-3.1	5.4	-7.4	4.3
COc1ccc(/C=N/OCC(=O)N(Cc2ccccc2)c2ccccc2C(=O)O)cc1	.	23.8	0.0	-0.6	-5.4	0.1	-7.1	-7.4
COC(=O)c1cnn(-c2ccccc2)c1/C=N/NC(=S)Nc1ccc(Cl)cc1	.	-5.0	-0.6	-1.9	3.6	0.8	-21.2	-1.9
CS(=O)(=O)c1ccccc1-c1nnc(-c2ccc(Cl)cc2)o1	-1.3	-2.4	0.8	1.8	-8.7	-0.3	-8.3	-9.7
CCN(CC)CCN(C)Cc1ccc(Br)cc1	4.9	-0.8	-0.4	-4.3	-8.0	0.2	26.7	8.2

Full records from above. Screens in order: UCH37 DUB inh	Calb FLC	Bfl-1 A1 inh	LANA-H2B inh	Beta cell apopt	RanGTP-Imp inh	T cruzi inh	Beta2AR agonist
O=C(Nc1ccncc1)c1ccc2c(c1)OCCO2 is listed as 2.4	1.5	-0.4	0.5	7.8	-2.1	-16.1	6.0
CN(C)C(CNC(=O)CCOc1ccccc1)c1ccco1 (stereo not given) is listed as -2.5	-1.0	0.7	0.6	-5.4	0.3	-0.8	6.0
O=C(Nc1ccc2c(c1)C(=O)OC2)c1ccccc1Cl is listed as 3.7	7.3	-0.1	8.2	0.7	?	-25.5	2.0
CCOc1ccc(N(C(C)=O)C2C=CS(=O)(=O)C2)cc1 (stereo not given) is listed as 3.6	-7.1	0.2	1.6	.	4.2	-5.4	7.8
